CSC inhib = cancer stem cell viability inhibitors, primary screen, luminescence; inhibition, % at 7.5 µM; AID 2717, 2010; cancer stem cell-like cells viability; 300,000 compounds, 1.1% hits;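 active means mean at 75% or more and at least half the replicates too; tested in HMLE shEcad cells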;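 further: 0% = median of negative and 100% = median of positive control wells; the first replicate is given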
HIV Env fusion = inhibitors of HIV-1 Env-driven cell-cell fusion, primary screen, HeLa-JRFL effector, CEM21 target cells, luciferase; inhibition, % at 12.3 µM; 360,000 compounds, 1.1% hits; AID 651610, 2012;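 active means mean replicate inhibition score of at least 50 and every replicate individually at or above 50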;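 further: 0% = plate neutral controls and 100% = maraviroc near 300 nM; one replicate is shown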
Rce1 inhib = yeast Rce1p protease inhibitors, primary screen, biochemical, fluorescence, cell-free homogeneous; CAAX prenyl protease 2 (Saccharomyces cerevisiae (strain ATCC 204508 / S288c)), Q03530; 290,000 compounds, 0.27% hits; AID 2563, 2010; yeast membranes, quenched prenylated peptide cleavage fluorescence; calls only;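 active means fall in fluorescence gain of 50% or more versus controls, with final raw signal at or below 3038400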;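 further: plate controls were neutral control wells for no effect and wells lacking membranes for full effect; tested at 10 µM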
Target sequence (Q03530 whole entry, looked up): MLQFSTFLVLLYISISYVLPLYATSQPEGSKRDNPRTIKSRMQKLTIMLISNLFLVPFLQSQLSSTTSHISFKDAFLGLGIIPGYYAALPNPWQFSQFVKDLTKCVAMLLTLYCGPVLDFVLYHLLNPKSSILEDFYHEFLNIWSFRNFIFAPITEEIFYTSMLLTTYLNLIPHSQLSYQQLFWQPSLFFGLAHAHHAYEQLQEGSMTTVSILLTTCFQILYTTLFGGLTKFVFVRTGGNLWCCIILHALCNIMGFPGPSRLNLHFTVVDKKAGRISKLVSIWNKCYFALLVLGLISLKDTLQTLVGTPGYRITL
Yeast UUG start = modulators of yeast start codon fidelity, primary screen, whole organism, S. cerevisiae, single point, plate reader | S. cerevisiae UUG-firefly luciferase reporter, luminescence/redox ratio | activity score, % at 18.7 µM | 350,000 compounds, 0.13% hits | AID 602363, 2012;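 active means replicate mean at a twofold rise or more, about +100% in these data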;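 further: firefly luciferase made from a UUG start codon reports start codon fidelity; reporter light over untreated wells divided by growth signal over untreated wells; some hits fall short of that in this replicate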
eIF4H inh = human eIF4H binding inhibitors, primary screen, translation initiation inhibitor project, biochemical, uHTS, fluorescence polarization | eIF4H fluorescence polarization binding assay | inhibition, % at 35 µM | 290,000 compounds, 0.94% hits | AID 2012, 2009;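 active means 50% or more with normal probe brightness, or confirmed in later tests; about a fifth of its hits are not listed in these tables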;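 further: calls also rest on retests at 20 µM and on dose response follow-up; 0% = protein and probe with vehicle and 100% = probe without protein; strong numbers were not always called active; many hits fall short of the cut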
PABP FP inh = PABP poly(A) RNA binding inhibitors, primary screen, biochemical, fluorescence polarization, uHTS. inhibition, % at 35 µM. 290,000 compounds, 1% hits. AID 2014, 2009;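 active means 50% or more with normal probe brightness, or confirmed in later tests; about a fifth of its hits are not listed in these tables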;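 further: calls also rest on retests at 20 µM and on dose response follow-up; controls were probe without protein and protein plus probe with vehicle; some compounds called inactive have numbers as strong as hits; many hits fall short of the cut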
Target sequence (P11940 whole entry, looked up): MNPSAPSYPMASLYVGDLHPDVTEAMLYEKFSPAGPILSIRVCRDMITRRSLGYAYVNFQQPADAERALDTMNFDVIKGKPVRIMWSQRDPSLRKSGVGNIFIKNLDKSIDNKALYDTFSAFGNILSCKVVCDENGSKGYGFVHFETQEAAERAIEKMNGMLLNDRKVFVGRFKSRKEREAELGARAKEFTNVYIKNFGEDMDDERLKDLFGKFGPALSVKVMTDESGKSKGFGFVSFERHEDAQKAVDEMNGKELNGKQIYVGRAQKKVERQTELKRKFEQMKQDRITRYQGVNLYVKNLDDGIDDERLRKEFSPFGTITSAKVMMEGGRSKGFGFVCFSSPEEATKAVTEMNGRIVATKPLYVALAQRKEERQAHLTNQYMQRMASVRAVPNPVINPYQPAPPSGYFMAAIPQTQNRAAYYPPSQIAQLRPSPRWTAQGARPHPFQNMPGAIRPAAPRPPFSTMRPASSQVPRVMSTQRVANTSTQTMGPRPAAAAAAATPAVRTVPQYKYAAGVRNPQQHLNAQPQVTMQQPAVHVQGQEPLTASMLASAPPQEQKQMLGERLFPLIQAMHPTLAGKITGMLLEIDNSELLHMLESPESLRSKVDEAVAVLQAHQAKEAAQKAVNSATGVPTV
MT1-MMP act inh = blockers of MT1-MMP proenzyme processing, primary screen, HT1080 RFP-PRO-GFP cells, GFP/RFP fluorescence. GFP/RFP ratio change, % at 20 µM. Matrix metalloproteinase-14 (Homo sapiens), P50281. GFP/RFP ratio fluorescence, overnight; percent of plate control window, DMSO zero. 360,000 compounds, 0.061% hits;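 active means GFP/RFP ratio change of at least 30% with cell ATP level not reduced by more than half and red fluorescence within 50% of control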; further: strong numbers were not always called active
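Assay system: HT1080 RFP-PRO-GFP cells. Benchmarks: DMSO vehicle wells and RFP-L50D-GFP reporter cell wells. Times: overnight cell settling, then overnight compound exposure, 37 °C, 5% CO2. Compound: 20 µM single dose, 1% DMSO. Read-out basis: GFP/RFP fluorescence ratio.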
eIF4H inh retest = second read-out of eIF4H inh, no call of its own (marks repeat the call); inhibition, %; compound at 20 µM; confirmation average;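 mean of two retest wells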
PABP FP inh retest = recorded beside PABP FP inh, whose call it bears; inhibition, %; compound at 20 µM; confirmation repeats;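 mean of two retest wells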
MT1-MMP act inh RFP = second read-out of MT1-MMP act inh, no call of its own (marks repeat the call); RFP signal change, %; measured here: RFP expression control read;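 0 = vehicle wells; hits needed this value within 50% of zero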
Numbers without * were called inactive; i = inactive; nt = no result given; + = active, no number. Only part of the results is shown; rates above refer to the full screens.

SMILES	CSC inhib	HIV Env fusion	Rce1 inhib	Yeast UUG start	eIF4H inh	PABP FP inh	MT1-MMP act inh	MT1-MMP act inh RFP	others
COc1cc(C=NCc2ccccc2)ccc1O	nt	-156	nt	-1	nt	nt	0	0
CC(=O)c1ccc(S(=O)(=O)NCCCC(=O)NCCc2ccccn2)cc1	-6	-26	i	-12	-4	4	6	1
CCCc1nc2sc3ccccc3c(=O)c2c(=O)n1Cc1ccco1	nt	-46	nt	-8	64*	49*	-23	2	eIF4H inh retest=68*;PABP FP inh retest=52*
CCNC(=S)NNC(=O)c1csc(C)c1	2	-32	i	-23	5	46	4	7
COc1ccccc1N1CCN(CC(O)COc2c(OC)cccc2OC)CC1 (configuration not stated)	5	-12	i	-4	-6	16	-3	1
Oc1c(C=C2N=c3ccccc3=N2)sc(=S)n1C1CCCC1	-3	-6	i	-7	10	12	3	2
CC(C)Cn1c(CCC(=O)O)ccc1-c1cccs1	2	nt	nt	9	107	-3	-14	4	eIF4H inh retest=-3;PABP FP inh retest=8
CC(C)CNC(=S)NC(=O)c1ccc(F)cc1	4	-53	i	nt	4	-16	-1	-4
Cc1cccc(NC(=O)CN2C(=O)NC(C)(c3ccc4ccccc4c3)C2=O)n1 (configuration not stated)	-7	-5	i	23	nt	nt	-1	-4
O=C1CC(c2ccccc2)n2nc(N3C(=O)c4ccccc4C3=O)nc2N1 (configuration not stated)	0	nt	i	3	-4	3	5	0
CCOC(=O)c1c(C)[nH]c(C(=O)OC(C)C(=O)Nc2ccccc2OC)c1C (configuration not stated)	5	34	i	0	-2	-11	-5	-9
CCC1(c2ccccc2)NC(=O)N(CC(=O)NCc2ccncc2)C1=O (configuration not stated)	-13	2	i	-21	-4	1	2	2
COc1ccc(/C=C2\N=C(c3ccccc3)N(c3ccc(C(=O)O)cc3)C2=O)cc1OC	13	-2	i	-8	-2	-9	-3	-3
CN(CC(=O)NC1CCCCCC1)S(=O)(=O)c1ccccc1	-13	nt	i	-2	-2	-3	-1	-2
CN(C)c1ccc(/C=C/C=C2/SC(=S)N(c3ccccc3)C2=O)cc1	82*	nt	i	-14	26	-8	-13	90
COCCCN1C(=O)C(=O)/C(=C(/O)c2ccc(OC(C)C)cc2)C1c1ccc(O)c(OC)c1 (configuration not stated)	2	nt	i	nt	4	15	nt	nt
Cn1ccc2c(-c3ccc(C(N)=O)cc3)cc3c(c21)C1CCC3O1 (configuration not stated)	nt	-34	nt	8	nt	nt	0	4
C=CCN(CC=C)Cc1cc(=O)oc2ccc3ccccc3c12	nt	-22	nt	-9	nt	nt	-5	-7
CCC(c1nnc(SCC(=O)NC2CCCCC2)n1Cc1ccccc1)N(C)C (configuration not stated)	-9	-5	i	nt	nt	nt	-2	1
COCCNC(=O)C(c1ccc(C)cc1)N(C(=O)CCC(=O)Nc1ccccn1)C1CCCCC1 (configuration not stated)	-10	-12	i	-2	1	-3	-2	0
COc1ccc(S(=O)(=O)N2CCCCCC2)cc1C(=O)NCc1ccc(C)cc1	-10	nt	nt	-5	nt	nt	3	-8
CC(C)Cn1c(-c2ccc(Br)cc2)c[nH]c1=S	0	2	i	nt	-7	-1	4	-10
CC(C)CC(=O)Nc1cccc(NC(=O)CC(C)C)n1	-5	-4	i	nt	5	1	3	0
COc1ccc2c(c1)C=C(CN1CCN(C3CCCC3)C(CCO)C1)CO2 (configuration not stated)	64	7	i	-7	6	-2	-5	-1
COc1cccc(OCC(=O)Nc2cc(Cl)ccc2Oc2ccccc2)c1	54	18	i	nt	2	-2	-3	-3
CC1=CC(C)C2(COC(c3ccc[n+](C)c3)OC2)C(C)C1 (configuration not stated)	nt	-1	nt	nt	-2	59*	-7	-10
CC(=O)c1cccc(NC(=O)COc2ccccc2C(=O)c2cc(C#N)c(=O)n(C3CCCCC3)c2)c1	3	-9	i	nt	-4	-5	-3	-2
CC1(C)O[C@@H]2C[C@H]3[C@@H]4C[C@H](F)C5=CC(=O)CC[C@]5(C)[C@H]4[C@@H](O)C[C@]3(C)[C@]2(C(=O)CO)O1	-6	i	i	-7	-16	-8	-2	1
O=C(CO)N/N=C/c1ccc(Cl)cc1	-4	nt	i	-15	1	-2	5	-3
COc1ccccc1C(CNC(=O)C1CC(=O)N(Cc2ccccc2)C1)N1CCCC1 (configuration not stated)	-14	0	nt	-3	nt	nt	-4	-4
CCOC(=O)c1nnn(-c2nonc2N)c1CN(C)Cc1ccccc1	-1	nt	i	3	-6	3	-2	-2
CCc1ccc(N2C(=O)Nc3ccccc3C2(O)C(=O)N2CCN(c3ccccn3)CC2)cc1 (configuration not stated)	2	-16	i	-16	-10	1	4	7
O=C(Nc1ccc(N2CCOCC2)c(Cl)c1)c1ccc(Br)o1	-11	-122	i	-6	9	-4	13	3
COc1ccc(-n2c(N)c(C(=O)NCc3ccco3)c3nc4ccccc4nc32)c(OC)c1	1	nt	+	-2	0	10	-2	9
C#CCOCCOCCOCCNc1nc(N2CCOCC2)nc(N2CCN(C(=O)[C@H](CO)n3cc([C@@H](N)C(C)C)nn3)CC2)n1	-2	0	nt	39	nt	nt	1	0
O=C(Nc1ccc(Oc2ccccc2)cc1)C1CC1	5	-3	i	nt	7	9	1	1

Pulled by compound from above:
SMILES	CSC inhib	HIV Env fusion	Rce1 inhib	Yeast UUG start	eIF4H inh	PABP FP inh	MT1-MMP act inh	MT1-MMP act inh RFP	others
COc1cc(C=NCc2ccccc2)ccc1O	nt	-156	nt	-1	nt	nt	0	0
Cn1ccc2c(-c3ccc(C(N)=O)cc3)cc3c(c21)C1CCC3O1 (configuration not stated)	nt	-34	nt	8	nt	nt	0	4

(cont.)
SMILES	CSC inhib	HIV Env fusion	Rce1 inhib	Yeast UUG start	eIF4H inh	PABP FP inh	MT1-MMP act inh	MT1-MMP act inh RFP	others
C=C(C)COc1ccc(-c2nc(N)nc(C)c2-c2ccc(OC)cc2)c(O)c1	9	-16	i	nt	20	3	-12	-3
CC(CNCC1CCCO1)COc1cccc2ccccc12 (configuration not stated)	3	nt	i	-9	-10	-7	4	6
C=Cn1cc[n+](CC(=O)C(C)(C)C)c1	-8	8	i	nt	4	-1	0	5
O=C(COC(=O)c1ccc2c(c1)OCCO2)Nc1cc(S(=O)(=O)N2CCOCC2)ccc1Cl	-2	5	i	12	-4	6	0	0
CCOC(=O)c1cc(OC(=O)c2ccccc2Br)n(-c2ccccc2)n1	-9	nt	i	-13	6	17	4	1
CCOC(=O)c1cc2sccc2n1CC(=O)N1CCCC1	-2	nt	i	-22	-4	-5	4	-1
O=C(N1CCCCC1)N1CCN(C(c2ccccc2)c2ccccc2)CC1	-6	nt	i	-17	-1	8	-7	-9
C=CCn1nc([N+](=O)[O-])nc1Sc1cccc2cccnc12	-18	nt	i	nt	-4	-9	-4	-10
NC(=O)CC(NC(=O)c1cccc(Br)c1)c1ccc(N2CCC(Br)CC2)c([N+](=O)[O-])c1 (configuration not stated)	-18	6	i	-1	4	4	3	-5
c1ccc(-c2c[n+]3c(n2-c2ccccc2)CCC3)cc1	-2	17	i	-6	-5	4	-1	-19
CCOC(=O)c1cnc(SC)nc1N	-4	nt	i	-13	12	-10	5	4
O=C(COc1ccccc1)NCC(=O)N/N=C/C=C/c1ccccc1	1	17	i	nt	-9	-1	4	6
N#Cc1nc(COc2ccc(F)cc2)oc1NCCCn1ccnc1	-3	18	i	-10	-1	1	4	-1
COc1ccccc1C1(O)C(=O)Nc2ccccc21 (configuration not stated)	9	7	i	-17	2	2	nt	nt
OC[C@@H]1CN(Cc2ccc3c(c2)OCO3)C[C@H](n2cnc3c(NCc4ccc(F)cc4)ncnc32)O1	nt	5	nt	-11	nt	nt	-3	-6
COCC1CCCCN1C(=O)c1ccc2nc(Cc3ccc(OC)c(OC)c3)oc2c1 (configuration not stated)	-8	8	i	-12	-4	-14	0	-22
Cc1ccc(O)c(C2=Nc3ccccc3N=C(c3cccs3)C2)c1	54	26	i	nt	9	8	-2	-3
O=C(NC1CCCc2ccccc21)c1cccc(S(=O)(=O)N2CCOCC2)c1 (configuration not stated)	-15	0	i	nt	-9	10	3	2
CCOC(=O)Cc1nn(CCc2ccccn2)c(=O)c2ccccc12	-12	nt	i	-3	-2	19	6	0
O=C(c1c(O)c2ccccc2oc1=O)C1CCCCC1	-3	11	i	-4	6	17	-1	0
COc1cc(S(=O)(=O)NCCCn2ccnc2)ccc1Cl	-14	13	i	-5	-10	-2	1	0
CCc1ccc(NC(=O)C2=CC(c3cccs3)=NS(=O)(=O)N2C)cc1	-3	51	i	6	-1	2	-3	-11
CC(c1n[nH]c(=S)n1Cc1ccccc1)N(C)C (configuration not stated)	-20	-2	i	nt	0	-1	4	2
COc1cc(-c2cc(C(=O)N3CCN(c4ccccn4)CC3)c3ccccc3n2)cc(OC)c1OC	-8	-47	i	1	nt	nt	14	-9
O=C(CCc1nnc(C2CCCCC2)o1)N1CCCCC1CCn1cccn1 (configuration not stated)	-3	14	i	-13	-7	-7	1	1
CCOC(=O)N1CCN(c2ccccc2OC)CC1	-11	3	i	nt	-14	-5	2	3
CCC(Sc1n[nH]c(=O)[nH]c1=O)C(=O)OCc1ccccc1 (configuration not stated)	-4	12	i	-1	-10	-2	6	6
CCc1nnc(NS(=O)(=O)c2ccc(NC(=S)NC(=O)/C=C/c3ccc(OC)cc3)cc2)s1	3	13	i	nt	6	-13	-7	-5
Cc1cc(SCC(=O)Nc2cccc(S(N)(=O)=O)c2)c(C)cc1Br	6	6	i	nt	-1	8	-1	-15
CCCC(C(=O)O)N1C(=O)/C(=C/c2cccn2C)SC1=S (configuration not stated)	0	-12	nt	nt	30	-4	-28	3
CCOC(=O)C1(C(F)(F)F)N=C(C(F)(F)F)Nc2ccccc21 (configuration not stated)	-2	nt	i	-14	-10	-1	-1	1
COc1ccc(OC)c(NC(=O)C(=S)NC2CCCCC2)c1	56	17	i	-11	-5	4	-3	0
CCOc1ccccc1N1CCN(Cc2cccc(OC)c2OC)CC1	1	-71	i	-9	-7	10	-1	1
COc1cc(NC(=S)NCCc2c[nH]c3ccccc23)c(OC)cc1Cl	33	7	i	-28	1	3	0	-2
C/C(Cn1cnc([N+](=O)[O-])n1)=N/NC(=O)COc1c(Cl)cc(Cl)cc1Cl	-20	0	nt	nt	4	-16	-1	-1
COC(=O)c1cn(N(C)c2ncc(C(F)(F)F)cc2Cl)c(=O)c2ccccc12	nt	nt	i	-16	8	-9	-2	-6
C=CCS(=O)(=O)N1CCCC(Cc2ccccc2C)(C(=O)OCC)C1 (configuration not stated)	4	22	i	-2	-9	5	-4	-4
CCCN(CCC)c1ncnc2nc[nH]c12	-20	62*	i	-15	-6	-17	-11	-10
Cc1ccc(CN2CCC(n3nccc3NC(=O)CCCc3ccccc3)CC2)o1	-18	5	i	-14	0	-7	2	2
CC(C)CN(C(=O)COC(=O)c1cccn1C)c1c(N)n(Cc2ccccc2)c(=O)[nH]c1=O	9	-15	i	14	11	0	-1	0
CCOC(=O)N1CCN(Cc2cc(Cl)c3cccnc3c2O)CC1	19	41	i	nt	12	1	nt	nt
C#CCOCCOCCOCCNc1nc(N2CCN(C(=O)[C@H](CCCCN)n3cc([C@@H](N)C(C)CC)nn3)CC2)nc(N2CCN(C(=O)[C@H](CCCCN)n3cc([C@@H](N)CC(C)C)nn3)CC2)n1 (some centres not stated)	10	-9	i	0	53	38	3	3	eIF4H inh retest=8;PABP FP inh retest=2

Screening data (PubChem)
